# AID923: qHTS Assay for Allosteric/Competitive Inhibitors of Caspase-1: Spectroscopic Profiling in AFC Spectral Region; compound fluorescence, AFC spectral region (405/520 nm); almost no hit is shown here; Potency, µM (highest dose often 57.5 µM), for inactives: at the top dose fluorescence increase, hits mostly activators; hit rate 1.1% among 75,000; active means well fitted activation curve with a large enough effect; inconclusive means small, poorly fitted or top-dose-only effect;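 further: potency means the concentration at half of the fitted maximal effect; 0% is about no effect; scaled to a free AFC standard on each plate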
#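 Compound autofluorescence profiled at 405 nm ex/520 nm em during kinetic caspase 1 run (50 nM enzyme, 5 uM Ac-WEHD-AFC, HEPES pH 7.5, 10 mM DTT). Titration up to 57 uM; baseline from regression intercept, normalized to AFC standard curve.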
# Resorufin autofl: compounds fluorescent in resorufin spectral region; Compound fluorescence, resorufin region 547/598 nm, buffer; hits give high values; max dye-equivalent concentration, M; hit rate 0.04% among 59,000; AID 588; active = above 10 nM dye equivalent; inconclusive = 1 to 10 nM; inactive = 1 nM or less; a few of its hits are not listed in these tables; further: highest value over a series up to 38 µM
#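 Dye-equivalent concentration values derive from comparing each well's 547/598 nm fluorescence against resorufin standards included on every plate. Incubation was 15 min at room temperature in 100 mM Tris, pH 8.0.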
# TSHR agonist: activates the human thyroid stimulating hormone receptor | P16473 | HEK293-CNG-TSHR cells (CNG channel as cAMP sensor), membrane potential dye, cAMP | Potency, µM (titrated, usually from 57.1 µM), for the others: top-dose activation, most hits filed as activators | hit rate 0.48% among 73,000; active = well fitted activation curve of enough size with the parental cells flat; inconclusive = any curve in the parental cells; inactive = parental cells flat and receptor cells flat or falling; further: potency means the concentration at half of the fitted maximal effect; % of control where 0% means no effect; weak receptor curves with flat parental cells got no call and are not listed
# Target sequence (P16473 whole entry, looked up): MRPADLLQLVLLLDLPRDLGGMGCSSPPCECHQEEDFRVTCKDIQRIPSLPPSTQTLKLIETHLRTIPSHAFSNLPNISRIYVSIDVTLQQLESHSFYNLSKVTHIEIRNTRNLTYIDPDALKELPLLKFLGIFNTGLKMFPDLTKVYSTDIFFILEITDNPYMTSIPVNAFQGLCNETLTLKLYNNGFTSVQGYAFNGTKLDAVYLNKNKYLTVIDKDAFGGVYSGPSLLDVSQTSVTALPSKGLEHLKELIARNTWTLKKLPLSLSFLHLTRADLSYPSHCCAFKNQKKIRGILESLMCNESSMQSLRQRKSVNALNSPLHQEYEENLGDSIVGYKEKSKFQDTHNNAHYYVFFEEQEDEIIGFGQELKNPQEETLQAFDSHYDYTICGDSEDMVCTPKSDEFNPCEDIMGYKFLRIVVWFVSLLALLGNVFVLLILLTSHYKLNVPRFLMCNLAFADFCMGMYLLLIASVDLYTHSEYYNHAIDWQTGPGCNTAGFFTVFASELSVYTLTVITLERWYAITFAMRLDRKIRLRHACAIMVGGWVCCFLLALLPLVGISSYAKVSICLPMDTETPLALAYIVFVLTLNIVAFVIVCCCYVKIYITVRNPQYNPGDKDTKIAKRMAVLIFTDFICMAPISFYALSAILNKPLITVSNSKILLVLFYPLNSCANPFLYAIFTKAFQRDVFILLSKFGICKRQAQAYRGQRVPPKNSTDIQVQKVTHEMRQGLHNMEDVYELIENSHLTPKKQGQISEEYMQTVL
#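 HEK 293 cells stably expressing TSHR and a cAMP-gated CNG channel; parental CNG-only cells as counterscreen. Cells preloaded 60 min with membrane potential dye plus 100 uM RO 20-1724, then compound 30 min; fluorescence read at 590 nm.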
# A488 fluor: compound fluoresces in the A488 spectral region; AID 591; compound autofluorescence, A488 spectral region, dye equivalency; hits give high values; max dye equivalency, M; hit rate 0.1% among 59,000; active = above 10 nM dye equivalent; inconclusive = 1 to 10 nM; inactive = 1 nM or less; about half of its hits are not listed in these tables;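 further: highest value over a series up to 38 µM; compound alone in buffer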
#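 Readout is A488 dye-equivalent concentration, calibrated by a per-plate six-point Alexa 488 series. Compounds in 100 mM Tris buffer pH 8.0 were incubated 15 min at room temperature. Plates were imaged using 480 nm excitation/540 nm emission filters.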
# A647 autofl: A647 region autofluorescence; Compound fluorescence, A647 channel (570/671 nm), Tris buffer; max dye-equivalent concentration, M; 59,000 tested, under 10 active; active means above 1 µM dye equivalent; inconclusive means 0.1 to 1 µM; inactive means 0.1 µM or less;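 further: values scaled relative to a standard on each plate; highest value over a series up to 38 µM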
#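 Buffer was dispensed, compounds and Alexa 647 standards were pin-transferred, and plates sat 15 min at room temperature. Intensity at 570/671 nm was then converted to dye-equivalent concentration using the plate's A647 standard curve.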
# * marks the source's active call; other numbers are inactive results; i = inactive; ? = inconclusive; / = not tested or not shown; & = joins results of further samples; [ ] = dose if it differs, or a comment. This is a subset. The share of hits here may be higher or lower than overall.
[1] O=C(O)COC(=O)Cc1ccccc1Nc1c(Cl)cccc1Cl
[2] Cc1nnc(NS(=O)(=O)c2ccc(N)cc2)s1
[3] COc1nc(C)nc(Cl)c1NC1=NCCN1
[4] O=C1NCC2(CCN(CCc3ccccc3)CC2)O1
[5] COc1cc2nc(N3CCN(C(=O)C4COc5ccccc5O4)CC3)nc(N)c2cc1OC (stereo not drawn)

assay / entry	1	2	3	4	5
AID923	-0.2%[25.7 µM]	-3.6%	3.0%	0.4%	/
Resorufin autofl	i	i	i	i	i
TSHR agonist	6%[25.6 µM]	?	-2%	?	/
A488 fluor	i	i	i	i	i
A647 autofl	3.3e-09	3.5e-08&2.5e-09	6e-09&3e-09	1e-09&2.4e-09	1.3e-09

[6] CCCOc1ccccc1-c1nc2n[nH]nc2c(=O)[nH]1
[7] CCN(CC)C[C@@H]1CCCCN1CC(=O)N1c2ccccc2C(=O)Nc2cccnc21
[8] NS(=O)(=O)c1cc2c(cc1C(F)(F)F)NC(Cc1ccccc1)NS2(=O)=O (stereo not drawn)
[9] Nc1cc(-c2ccncc2)c[nH]c1=O
[10] O=C(O)CN1C(=O)c2cccc3cccc(c23)C1=O

assay / entry	6	7	8	9	10
AID923	4.0%	-1.3%	-0.8%	17%	-0.8%
Resorufin autofl	i	/	i	i	/
TSHR agonist	17%	10%	/	-10%[25.6 µM]	-4%
A488 fluor	i	/	i	i	/
A647 autofl	2.5e-09&6.7e-08	/	2.9e-08	5.1e-08	/

[11] CC(=O)[C@@H]1CC[C@@H]2[C@@H]3C[C@H](C)C4=CC(=O)CC[C@@]4(C)[C@H]3[C@H](O)C[C@]21C
[12] O=C(Cn1ccnc1[N+](=O)[O-])NCCO
[13] CC1=NN(c2ccccc2)C(=O)C1
[14] NS(=O)(=O)c1cc2c(cc1C(F)(F)F)N[C@H](Cc1ccccc1)NS2(=O)=O
[15] CN1CCC(=C2c3ccccc3CCc3sccc32)CC1

assay / entry	11	12	13	14	15
AID923	-0.4%[25.7 µM]	-5.5%	-2.4%&-1.6%	-0.5%[25.7 µM]	0.1%
Resorufin autofl	i	i	i	i	i
TSHR agonist	-5%[25.6 µM]	1%[25.6 µM]	?	/	26%[25.6 µM]
A488 fluor	i	i	i	i	i
A647 autofl	2.6e-09	2.2e-08	8.4e-09	4.4e-09	2.7e-09

# Reformatted with tabs: 12 of the compounds above
item	SMILES	AID923	Resorufin autofl	TSHR agonist	A488 fluor	A647 autofl
1	O=C(O)COC(=O)Cc1ccccc1Nc1c(Cl)cccc1Cl	-0.2%[25.7 µM]	i	6%[25.6 µM]	i	3.3e-09
2	Cc1nnc(NS(=O)(=O)c2ccc(N)cc2)s1	-3.6%	i	?	i	3.5e-08&2.5e-09
3	COc1nc(C)nc(Cl)c1NC1=NCCN1	3.0%	i	-2%	i	6e-09&3e-09
4	O=C1NCC2(CCN(CCc3ccccc3)CC2)O1	0.4%	i	?	i	1e-09&2.4e-09
5	COc1cc2nc(N3CCN(C(=O)C4COc5ccccc5O4)CC3)nc(N)c2cc1OC (stereo not drawn)	/	i	/	i	1.3e-09
6	CCCOc1ccccc1-c1nc2n[nH]nc2c(=O)[nH]1	4.0%	i	17%	i	2.5e-09&6.7e-08
7	CCN(CC)C[C@@H]1CCCCN1CC(=O)N1c2ccccc2C(=O)Nc2cccnc21	-1.3%	/	10%	/	/
8	NS(=O)(=O)c1cc2c(cc1C(F)(F)F)NC(Cc1ccccc1)NS2(=O)=O (stereo not drawn)	-0.8%	i	/	i	2.9e-08
9	Nc1cc(-c2ccncc2)c[nH]c1=O	17%	i	-10%[25.6 µM]	i	5.1e-08
10	O=C(O)CN1C(=O)c2cccc3cccc(c23)C1=O	-0.8%	/	-4%	/	/
11	CC(=O)[C@@H]1CC[C@@H]2[C@@H]3C[C@H](C)C4=CC(=O)CC[C@@]4(C)[C@H]3[C@H](O)C[C@]21C	-0.4%[25.7 µM]	i	-5%[25.6 µM]	i	2.6e-09
12	O=C(Cn1ccnc1[N+](=O)[O-])NCCO	-5.5%	i	1%[25.6 µM]	i	2.2e-08

# Later entries
[16] Nc1c2c(nc3ccccc13)CCC[C@H]2O
[17] CN(C)CCCSc1ccccc1NC(=O)/C=C\c1ccccc1
[18] N=C(N=C(N)N)N1CCOCC1
[19] CC(=O)O[C@]1(C(C)=O)CC[C@H]2[C@@H]3C=C(Cl)C4=CC(=O)[C@@H]5C[C@@H]5[C@]4(C)[C@H]3CC[C@@]21C
[20] O=P(O)(O)O
[21] CCCCCCCCO
[22] Cc1c(C(=O)O)c(O)cc2c1C(=O)c1c(O)c([C@H]3O[C@H](CO)[C@@H](O)[C@H](O)[C@H]3O)c(O)c(O)c1C2=O
[23] COc1ccccc1OCC(O)COC(N)=O (stereo not drawn)

assay / entry	16	17	18	19	20	21	22	23
AID923	-4.0%	-1.8%	2.2%[25.7 µM]	4.1%	-0.4%	-0.7%	-3.3%	-1.7%
Resorufin autofl	i	/	i	/	/	/	/	i
TSHR agonist	/	20%	-2%	?	-1%	-9%	6%	/
A488 fluor	i	/	i	/	/	/	/	i
A647 autofl	1e-09	/	2.9e-09&1.3e-09	/	/	/	/	4.4e-08

# Screens as filed in PubChem BioAssay.
